Source: PubChem (ICCB-Longwood Screening Facility, Harvard Medical School)
Polio RdRp inh = inhibitors of poliovirus RNA polymerase binding and polymerization; P03300; poliovirus polymerase elongation, fluorescence polarization; active compounds read low; % elongation, % (compound at 16.7 µg/mL); actives 0.66% (n = 150,000); in the data active = % elongation below about 90%; also: some results filed as inactive read as strong as hits
Target sequence (P03300 1749-2209 limits assumed): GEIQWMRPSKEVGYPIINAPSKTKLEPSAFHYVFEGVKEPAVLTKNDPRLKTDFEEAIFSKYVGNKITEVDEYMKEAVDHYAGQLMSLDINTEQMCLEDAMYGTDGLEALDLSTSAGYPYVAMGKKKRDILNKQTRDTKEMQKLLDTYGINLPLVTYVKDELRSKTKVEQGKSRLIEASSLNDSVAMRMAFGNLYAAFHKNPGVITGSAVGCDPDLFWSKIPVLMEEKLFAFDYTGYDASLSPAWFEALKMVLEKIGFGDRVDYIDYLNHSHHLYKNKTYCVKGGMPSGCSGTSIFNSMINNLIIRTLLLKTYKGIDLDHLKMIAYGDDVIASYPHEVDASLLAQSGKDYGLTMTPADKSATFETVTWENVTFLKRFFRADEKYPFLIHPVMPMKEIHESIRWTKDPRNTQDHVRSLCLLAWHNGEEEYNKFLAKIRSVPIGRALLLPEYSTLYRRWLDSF
Polio RdRp inh intensity = second read-out of Polio RdRp inh, no call of its own (marks repeat the call); % elongation; measured here: total intensity read-out; formula for this scale not given here;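 total fluorescence in place of polarization; lower means less elongation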
An asterisk follows results filed as active. Some of the compounds tested, so the mix of outcomes need not match the whole.

A first look, 18 compounds:
SMILES	Polio RdRp inh	Polio RdRp inh intensity
COc1ccccc1S(=O)(=O)Cc1ccc(C(=O)NCc2ccc(Cl)cc2)o1	106	105
COc1ccc(-c2c(C)nn3c(N4CCC(C(=O)NCCC(C)C)CC4)cc(C)nc23)cc1OC	107	111
O=c1c2[nH]c3ccccc3c2nc(SCc2ccccc2F)n1-c1ccc(F)cc1	109	115
CCOC(=O)c1c(C)oc2nc(C)nc(N3CCN(c4ccccc4F)CC3)c12	100	100
CCOc1ccc(CNC(=O)C2CCN(c3nnc(-n4c(C)ccc4C)s3)CC2)cc1	104	106
Cc1ccc2c(CC(=O)Nc3ccc(S(=O)(=O)Nc4nc(C)cc(C)n4)cc3)coc2c1	117	119
COc1cc(-c2ccno2)ccc1S(=O)(=O)N1CCN(c2cc(C)ccc2C)CC1	108	115
CCOC(=O)C1CCN(S(=O)(=O)c2cc3c4c(c2)CC(=O)N4CCC3)CC1	116	116
O=C(COc1ccc(Cl)cc1)NCC(c1cccs1)S(=O)(=O)c1ccc(F)cc1 (centres undefined)	106	111
Cc1ccc(CNC(=O)c2ccc3c(c2)c(C)c(C)n3Cc2ccc(Cl)cc2)o1	105	106
Cc1ccc(OCC(=O)Nc2ccc(S(=O)(=O)Nc3cc(C)on3)cc2)c(Br)c1	100	102
COc1ccc(NC(=O)CCNS(=O)(=O)c2cccc3nsnc23)cc1	101	95
CCOc1cc(C2c3c(oc4cc(C)cc(C)c4c3=O)C(=O)N2CCO)ccc1O (centres undefined)	108	105
COCCCNC(=O)CSc1nc2cc3c(cc2c(=O)n1CCCC(=O)NCc1ccc(OC)cc1)OCO3	104	108
CCOc1ccc(NC(=O)C(NS(=O)(=O)c2ccc3c(c2)CCN3C(C)=O)C(C)C)cc1 (centres undefined)	102	97
COc1ccc(C(C)n2c(C)c3c(C)nnc(C)c3c2C)cc1 (centres undefined)	106	114
Cc1ccc(Cl)cc1N1CCN(C(=O)c2ccc3c(c2)N(Cc2ccccc2F)C(=O)c2ccccc2S3(=O)=O)CC1	108	103
COc1cccc(-c2cc(C(=O)Nc3ccc(F)cc3)[nH]n2)c1	111	109

Results, previewed entries included:
SMILES	Polio RdRp inh	Polio RdRp inh intensity
COc1ccccc1S(=O)(=O)Cc1ccc(C(=O)NCc2ccc(Cl)cc2)o1	106	105
COc1ccc(-c2c(C)nn3c(N4CCC(C(=O)NCCC(C)C)CC4)cc(C)nc23)cc1OC	107	111
O=c1c2[nH]c3ccccc3c2nc(SCc2ccccc2F)n1-c1ccc(F)cc1	109	115
CCOC(=O)c1c(C)oc2nc(C)nc(N3CCN(c4ccccc4F)CC3)c12	100	100
CCOc1ccc(CNC(=O)C2CCN(c3nnc(-n4c(C)ccc4C)s3)CC2)cc1	104	106
Cc1ccc2c(CC(=O)Nc3ccc(S(=O)(=O)Nc4nc(C)cc(C)n4)cc3)coc2c1	117	119
COc1cc(-c2ccno2)ccc1S(=O)(=O)N1CCN(c2cc(C)ccc2C)CC1	108	115
CCOC(=O)C1CCN(S(=O)(=O)c2cc3c4c(c2)CC(=O)N4CCC3)CC1	116	116
O=C(COc1ccc(Cl)cc1)NCC(c1cccs1)S(=O)(=O)c1ccc(F)cc1 (centres undefined)	106	111
Cc1ccc(CNC(=O)c2ccc3c(c2)c(C)c(C)n3Cc2ccc(Cl)cc2)o1	105	106
Cc1ccc(OCC(=O)Nc2ccc(S(=O)(=O)Nc3cc(C)on3)cc2)c(Br)c1	100	102
COc1ccc(NC(=O)CCNS(=O)(=O)c2cccc3nsnc23)cc1	101	95
CCOc1cc(C2c3c(oc4cc(C)cc(C)c4c3=O)C(=O)N2CCO)ccc1O (centres undefined)	108	105
COCCCNC(=O)CSc1nc2cc3c(cc2c(=O)n1CCCC(=O)NCc1ccc(OC)cc1)OCO3	104	108
CCOc1ccc(NC(=O)C(NS(=O)(=O)c2ccc3c(c2)CCN3C(C)=O)C(C)C)cc1 (centres undefined)	102	97
COc1ccc(C(C)n2c(C)c3c(C)nnc(C)c3c2C)cc1 (centres undefined)	106	114
Cc1ccc(Cl)cc1N1CCN(C(=O)c2ccc3c(c2)N(Cc2ccccc2F)C(=O)c2ccccc2S3(=O)=O)CC1	108	103
COc1cccc(-c2cc(C(=O)Nc3ccc(F)cc3)[nH]n2)c1	111	109
COc1ccccc1C(=O)Nc1cc(-c2ccc(C)cc2)no1	105	106
COc1ccc(CNC(=O)C2(c3cccs3)CCOCC2)cc1	103	108
CN(C)c1ccc(CNC(=O)CN2C(=O)C3CCCCN3c3ccc(C(=O)N4CCCC4)cc32)cc1 (centres undefined)	101	106
Cc1ccc(NC(=O)N2CCN(c3nnc(C)c4c(C)n(-c5ccccc5)nc34)CC2)c(Cl)c1	115	113
CC(C)CCNC(=O)CSc1nc2ccccc2nc1Cc1ccc(Cl)cc1	101	103
CCN(CC)C(=O)Cn1c(=O)n(Cc2ccc(C(=O)NCc3ccc(C)cc3)cc2)c(=O)c2ccccc21	114	113
Fc1ccc(-c2nnn3c2nc(NCc2ccccc2)c2ccccc23)cc1	104	109

New compounds follow.
SMILES	Polio RdRp inh	Polio RdRp inh intensity
Cc1ccc(NC(=O)CN2C(=O)CN=C(c3ccccc3)c3ccccc32)cc1	101	108
CCOc1ccc(C(=O)c2cn(CC(=O)Nc3cccc(OC)c3)c3cc4c(cc3c2=O)OCCO4)cc1	111	104
Cc1cc(Nc2ccc(F)cc2)n2c(nc3ccccc32)c1C#N	107	115
COc1ccc(C)cc1NC(=O)c1cc(S(=O)(=O)N2CCc3ccccc3C2)ccc1F	107	110
CC(CNC(=O)c1cc2ccccn2n1)c1ccccc1 (centres undefined)	108	100
Cc1ccc(-c2cn3c(n2)sc2cc(C(=O)NCc4cccs4)ccc23)c(C)c1	109	108
O=C(CCN1N=C(c2ccccc2)CCC1=O)NCCc1ccc(Cl)cc1	99	98
COc1ccccc1CCNC(=O)C1CCN(c2nc3ccccc3nc2C(F)(F)F)CC1	111	103
COc1ccc(-c2c(C)nn3c(C(F)(F)F)cc(C)nc23)cc1OC	101	97
Cc1cccc(-c2nc(CCNC(=O)c3ccccc3Br)cs2)c1	108	97
CCOC(=O)CCc1c(C)nc2c(-c3ccccc3)c(C)[nH]n2c1=O	107	108
CCOc1ccccc1CNS(=O)(=O)c1cc(-c2onc(C)c2C)ccc1OC	104	107
CCOC(=O)c1ccc(N2C(=O)c3n[nH]c(-c4ccco4)c3C2c2cccc(F)c2)cc1 (centres undefined)	107	108
O=C(Nc1ccccc1)c1ccc2c(O)c(S(=O)(=O)c3ccc(Cl)cc3)c(=O)[nH]c2c1	94	102
Cc1cc(F)ccc1Nc1nc2ccccc2n2nnnc12	110	107
CSc1ncc2c(n1)-c1ccccc1N(Cc1ccccc1C)S2(=O)=O	112	120
Nc1c(C(=O)Nc2ccc(Cl)c(C(F)(F)F)c2)sc2nc3c(cc12)N1CCC3CC1	107	109
COc1ccc(C)cc1NC(=O)C1CCCN(S(=O)(=O)c2ccc3c(c2)oc(=O)n3C)C1 (centres undefined)	113	113
Cc1cccc(Cc2c(C)nc3nc(SCC(=O)NCc4ccccc4)nn3c2C)c1	103	103
Cc1cccc(N2CCN(C(c3ccccc3)c3nnc(-c4ccccc4F)o3)CC2)c1C (centres undefined)	104	112
COc1ccc2occ(CC(=O)Nc3ccc(S(=O)(=O)Nc4nc(C)cc(C)n4)cc3)c2c1	123	119
CCCNc1ccc(-c2nc(-c3ccco3)no2)cc1[N+](=O)[O-]	116	117
N#Cc1ccccc1NS(=O)(=O)c1ccc(N2CCCCS2(=O)=O)cc1	104	111
COc1ccc(OC)c(NC(=O)Cn2ccn(-c3ccc(F)cc3)c(=O)c2=O)c1	105	104
Cc1cccc(CNC(=O)C(=O)Nc2ccccc2C)c1	102	106

Next section.
SMILES	Polio RdRp inh	Polio RdRp inh intensity
CCc1ccc(Cn2nnc(C(=O)Nc3ccc(C)cc3)c2N)cc1	101	97
COc1ccccc1CNC(=O)CCc1c(C)nc2c(c(C)nn2-c2ccc(C)c(C)c2)c1C	102	106
COc1cc(C(=O)CC2(O)C(=O)N(Cc3ccccc3Cl)c3ccccc32)cc(OC)c1OC (centres undefined)	111	108
CCc1ccc(NC(=O)CCNC(=O)Cn2cnc3ccccc3c2=O)cc1	106	107
O=C(Nc1cc(C(F)(F)F)ccc1Cl)c1noc2c1CCCCC2	104	110
COc1ccc(C)cc1NC(=O)c1oc2ccc(S(=O)(=O)N3CCOCC3)cc2c1C	110	111
CN1C(=O)C2(SCC(=O)N2c2ccc(Cl)cc2)c2ccccc21 (centres undefined)	96	96
CN1C(=O)C2CCCCN2c2ccc(C(=O)NCc3ccccc3Br)cc21 (centres undefined)	103	110
CCN(CC)S(=O)(=O)c1ccc2c(c1)N(CC(=O)Nc1c(C)cccc1C)C(=O)CO2	103	106
Cc1cc(=O)n2nc(N3CCC(C(=O)NCc4ccc(Cl)cc4)CC3)sc2n1	112	112
Cc1ccc(CCNC(=O)C2CCCN(S(=O)(=O)c3ccc4c(c3)oc(=O)n4C)C2)cc1 (centres undefined)	111	112
CCc1ccc(CNC(=O)c2ccc3c(c2)nc2n3CCC(C)C2)cc1 (centres undefined)	101	96
CCOc1ccccc1NC(=O)N1CCN(C)c2ncccc21	106	115
COc1ccc(C(=O)Nc2cc(-c3nc4ccccc4s3)ccc2OC)cc1	100	98
COc1cc(-c2nc3cccc(C)n3c2Nc2ccc3c(c2)OCCO3)ccc1O	105	108
COc1cc(C(=O)NCCc2csc(-c3ccc(Cl)cc3)n2)cc(OC)c1OC	111	109
COc1cc(NC(=O)Cn2nc(-c3ccc(C)c(C)c3)ccc2=O)cc(OC)c1	107	107
CC(=O)Nc1cccc(NC(=O)CSc2cn(CC(=O)N(C(C)C)C(C)C)c3ccccc23)c1	116	119
CCc1ccc(CNC(=O)c2cc(-c3ccc(Cl)s3)nc3ccccc23)cc1	108	111
Cc1cc2c(cc1NS(=O)(=O)c1cccc(C#N)c1)n(C)c(=O)c(=O)n2C	110	112
COc1ccccc1-c1ncnn1-c1sc2c(c1C#N)CCCCC2	111	109
Cc1ccc(C(=O)COC(=O)c2cc(-c3cccs3)nc3ccccc23)cc1	103	106
CC(=O)c1cccc(NC(=O)c2sc(-n3nc(C)c(Cc4ccc5c(c4)OCO5)c3C)nc2C)c1	109	108
CC(C)CCSc1nc2c(c(=O)n(C)c(=O)n2C)n1Cc1ccccc1Cl	101	101
Cn1ncc2c(N3CCN(c4ccccc4F)CC3)ncnc21	100	105

New compounds follow
SMILES	Polio RdRp inh	Polio RdRp inh intensity
COc1ccc(Cn2ccnc2SCC(=O)NCc2ccccc2)cc1	103	105
COc1ccccc1OCCCn1c(C2CC(=O)N(c3ccccc3Cl)C2)nc2ccccc21 (centres undefined)	113	116
CCc1ccc(NC(=O)CSc2ccc(-c3cccs3)nn2)cc1	100	107
Cc1ccc(-c2cc(C(=O)NCc3ccccc3)c3c(-c4ccc(C)cc4)[nH]nc3n2)cc1	107	96
COc1ccc(N2CCN(C(=O)c3cc4c(=O)oc5ccc(C)cc5c4s3)CC2)cc1	105	105
O=C(Oc1ccc(F)cc1)c1nc(SCc2ccc(F)cc2)ncc1Cl	102	105
CCOC(=O)N1CCN(C(=O)Cn2ncc3c4ccccc4n(Cc4ccc(F)cc4)c3c2=O)CC1	106	105
Cc1ccc(NC(=O)COCc2cc(-c3cccs3)on2)cc1Cl	108	112
Cc1cc(C)cc(Nc2cc(C(=O)NCCCN(C)C3CCCCC3)c3ccccc3n2)c1	105	104
Cc1ccc(Cn2ccn(Cc3cccc(C(F)(F)F)c3)c(=O)c2=O)cc1	103	102
O=C(Nc1ccc(OC(F)(F)F)cc1)c1cc(-c2ccc(Cl)cc2)on1	107	109
CN1CCN(C(CNC(=O)C(=O)Nc2ccc(Cl)cc2)c2cccnc2)CC1 (centres undefined)	109	111
CCOC(=O)c1ccc2c(c1)N(Cc1cccc(OC)c1)C(=O)c1ccccc1S2(=O)=O	114	113
CCCCOc1ccc(C2c3c(oc4ccccc4c3=O)C(=O)N2c2nc(C)c(C(=O)OCC)s2)cc1OC (centres undefined)	103	105
CCOC(=O)c1c(-c2ccc(OC)cc2)oc2ccc(OCc3ccc(F)cc3F)cc12	107	110
CC1CCCN(c2ncnc3c2nnn3C)C1 (centres undefined)	107	112
CCC(C)NC(=O)c1sc2ncccc2c1-n1c(C)ccc1C (centres undefined)	96	105
Cc1ccc2c(c1)c(N1CCCC1=O)c(C(=O)Nc1ccc(F)cc1F)n2C	115	114
CCOc1ccccc1NC(=O)C1CCN(S(=O)(=O)c2c(C)noc2/C=C/c2ccco2)CC1	110	111
CCOC(=O)c1ccc(NC(=O)c2cc3sccc3n2Cc2ccc(Cl)cc2)cc1	102	107
O=S(=O)(c1ccc(F)cc1)N1CCC(n2c(C(F)(F)F)nc3cccnc32)CC1	107	114
Cc1cccc(N2CCN(C(=O)c3cnc(N4CCCC4)nc3C)CC2)c1C	107	106
O=C(Cc1ccc(Cl)cc1)Nc1ccc2nn(-c3ccccc3)nc2c1	107	112
CC(C)OCCCNc1sc(S(=O)(=O)c2ccccc2)nc1S(=O)(=O)c1ccc(Cl)cc1	104	99
CCOC(=O)c1ccc(NC(=O)Cc2ccc(-n3c(CC)nc4cccnc43)cc2)cc1	108	111

(more compounds)
SMILES	Polio RdRp inh	Polio RdRp inh intensity
COc1ccc(-c2nnc(SC(C)C(=O)O)o2)cc1 (centres undefined)	108	104
O=C(Cn1nc(N2CCN(c3ccccc3)CC2)ccc1=O)NCc1ccccc1F	108	113
COc1cc(Nc2nc(SCc3ccc(Cl)cc3)nc3ccccc23)cc(OC)c1	102	113
CC(=O)c1ccc(N2CCN(C(=O)CCCCn3c(=O)[nH]c4ccccc4c3=O)CC2)cc1	112	108
CCC1CCCCN1CCCNC(=O)c1c(C)oc2ncn(CC(C)C)c(=O)c12 (centres undefined)	102	109
Cc1ccc2occ(CC(=O)Nc3c(C(=O)Nc4ccc(Cl)cc4)oc4ccccc34)c2c1	116	114
CCC(C)Sc1c(C(C)C)cnc2c1c(=O)n(C)c(=O)n2C (centres undefined)	110	108
CC(=O)c1ccc(NC(=O)c2ccc(-c3nc(CSc4ccc(C)cc4)c(C)o3)cc2)cc1	107	114
CCN1CCN(C(c2ccccc2)c2c(O)cc(C)n(Cc3ccco3)c2=O)CC1 (centres undefined)	104	106
COc1ccc(NC(=O)Cn2nc(C)c3nn(-c4ccc(Cl)cc4)c(C)c3c2=O)cc1	111	119
COc1ccc(Br)cc1C(=O)Nc1ccc(-c2nc3ncccc3o2)cc1C	103	104
